FGF22 binding: binders of human FGF22 protein, primary screen, FGF22 synaptogenesis inhibitor project, biophysical, thermal shift, single point; Fibroblast growth factor 22 (Homo sapiens), Q9HCT0; recombinant FGF22 thermal shift, SYPRO orange fluorescence; percent of sucrose octasulfate shift, DMSO zero; calls only at 9.99 µM; 340,000 tested, 1.5% active;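 active = melting point raised past a set limit in the mean and every replicate; three in four hits are not shown here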
Target sequence (Q9HCT0 whole entry, looked up): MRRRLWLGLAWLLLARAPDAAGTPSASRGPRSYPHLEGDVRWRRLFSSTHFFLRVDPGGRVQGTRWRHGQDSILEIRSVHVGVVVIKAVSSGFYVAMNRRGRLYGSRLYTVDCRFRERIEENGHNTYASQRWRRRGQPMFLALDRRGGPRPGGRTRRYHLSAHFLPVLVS
Calls only; i = inactive; + = active, no number. Not all compounds are listed, so the mix of outcomes need not match the whole.

SMILES	FGF22 binding
C[C@H]1CN([C@@H](C)CO)S(=O)(=O)c2ccc(C3=CCCC3)cc2O[C@H]1CN(C)C(=O)c1ccccc1	i
COc1cccc(S(=O)(=O)Nc2ccc3c(c2)[C@H]2C[C@H](CC(=O)N[C@@H](C)c4ccccc4)O[C@@H](CO)[C@H]2O3)c1	i
O=C(c1ccccn1)N1CC[C@@H]2[C@@H](CO)Nc3ccc(-c4ccccc4)cc3[C@@H]21	i
COc1ccc(S(=O)(=O)Nc2ccc3c(c2)C(=O)N([C@@H](C)CO)C[C@@H](C)[C@H](CN(C)S(=O)(=O)c2cccs2)OCCCC[C@@H](C)O3)cc1	i
CN1C[C@H]2[C@@H](c3ccccc31)[C@@H](CO)N2C(=O)CN1CCOCC1	i
COc1ccc(CN(C)C[C@@H]2OCCCC[C@@H](C)Oc3ccc(NC(=O)Nc4c(C)noc4C)cc3C(=O)N([C@H](C)CO)C[C@@H]2C)cc1	i
C[C@@H]1CN([C@@H](C)CO)C(=O)CCCn2nncc2CO[C@@H]1CN(C)Cc1ccc2c(c1)OCCO2	i
C[C@@H]1CN([C@H](C)CO)S(=O)(=O)c2ccc(C#CC3CCCC3)cc2O[C@@H]1CN(C)C(=O)Cc1ccncc1	i
Cc1noc(C)c1S(=O)(=O)Nc1ccc2c(c1)C(=O)N([C@@H](C)CO)C[C@H](C)[C@H](CN(C)C(=O)CCCN(C)C)OCCCC[C@H](C)O2	i
COc1ccccc1-c1cnc2c(c1)C(=O)N([C@@H](C)CO)C[C@@H](C)[C@@H](CN(C)Cc1ccccc1)O2	i
COc1ccc(S(=O)(=O)N(C)C[C@H]2OCCCC[C@@H](C)Oc3ccc(NC(=O)c4ccncc4)cc3C(=O)N([C@@H](C)CO)C[C@@H]2C)cc1	i
CNC[C@H]1OCCCC[C@@H](C)Oc2ccc(NS(=O)(=O)c3ccc(OC)cc3)cc2C(=O)N([C@H](C)CO)C[C@H]1C	i
COc1ccc(NC(=O)Nc2cccc3c2O[C@H](CN(C)C(=O)Nc2ccc(F)cc2)[C@@H](C)CN([C@H](C)CO)C3=O)cc1	i
CC(C)NC(=O)N(C)C[C@@H]1Oc2c(NS(C)(=O)=O)cccc2C(=O)N([C@@H](C)CO)C[C@H]1C	i
C[C@@H]1CN([C@H](C)CO)C(=O)c2cc(-c3cccc(F)c3)cnc2O[C@@H]1CN(C)CC1CCOCC1	i
C[C@H]1CN([C@@H](C)CO)C(=O)c2cc(-c3cccc(F)c3)cnc2O[C@H]1CN(C)C(=O)c1cccc(F)c1	i
C[C@@H]1CCCCO[C@H](CN(C)C(=O)CCCN(C)C)[C@@H](C)CN([C@H](C)CO)C(=O)c2cc(NC(=O)CCC(F)(F)F)ccc2O1	+
Nc1ccc2ccc(N)cc2c1	i
COc1cccc(-c2ccc3c(c2)O[C@H](CN(C)C(=O)C2CCC2)[C@H](C)CN([C@@H](C)CO)S3(=O)=O)c1	i
C[C@@H]1CN([C@H](C)CO)C(=O)Cc2cc(NS(=O)(=O)c3cn(C)cn3)ccc2O[C@@H]1CN(C)Cc1ccc(Cl)c(Cl)c1	i
COCC(=O)N(C)C[C@H]1Oc2cc(-c3ccccc3)ccc2S(=O)(=O)N([C@@H](C)CO)C[C@@H]1C	i
O=C(c1ccccn1)N1CC2(C1)[C@H](c1ccccc1)[C@@H](CO)N2C(=O)C1CCCCC1	i
COc1ccccc1NC(=O)N[C@@H]1CC[C@@H](CCNS(=O)(=O)c2ccc(F)cc2)O[C@@H]1CO	i
CCC(=O)N1[C@H](CO)[C@@H](c2ccccc2)[C@@H]1CNC(=O)CN1CCOCC1	i
CC(C)NC[C@@H]1[C@H](c2ccc(C3=CCCCC3)cc2)[C@H](CO)N1C(=O)NC(C)C	i
COc1ccc(NC(=O)N(C)C[C@@H]2Oc3ncc(C#CCC(C)C)cc3C(=O)N([C@H](C)CO)C[C@@H]2C)cc1	i
Cc1ccc(S(=O)(=O)N[C@@H]2CC[C@H](CC(=O)NC3CCCCC3)O[C@@H]2CO)cc1	i
COc1ccc(S(=O)(=O)N(C)C[C@H]2Oc3c(NS(=O)(=O)c4ccc(C)cc4)cccc3C(=O)N([C@H](C)CO)C[C@@H]2C)cc1	i
C[C@@H](O)C#Cc1ccc([C@H]2[C@@H](CO)N3CCCCN(S(=O)(=O)c4ccccc4)C[C@@H]23)cc1	i
C[C@H]1CN([C@@H](C)CO)C(=O)c2cc(C3=CCCC3)cnc2O[C@H]1CN(C)C(=O)Cc1ccncc1	i

Two of these compounds in another layout.
compound: C[C@@H]1CN([C@H](C)CO)C(=O)Cc2cc(NS(=O)(=O)c3cn(C)cn3)ccc2O[C@@H]1CN(C)Cc1ccc(Cl)c(Cl)c1
- FGF22 binding: i
compound: COCC(=O)N(C)C[C@H]1Oc2cc(-c3ccccc3)ccc2S(=O)(=O)N([C@@H](C)CO)C[C@@H]1C
- FGF22 binding: i

Next compounds follow.
SMILES	FGF22 binding
COc1ccc(-c2ccc3c(c2)[C@@H]2[C@@H](CCN2C(=O)C2CCCCC2)[C@@H](CO)N3C)cc1	i
COC(=O)C1=C(C)N(CC(C)C)C(=S)NC1c1cccc(F)c1 (stereo not drawn)	i
CC(C)NC(=O)Nc1cccc2c1O[C@@H](CN(C)C(=O)Nc1cccc3ccccc13)[C@@H](C)CN([C@H](C)CO)C2=O	i
C[C@H](CO)N1C[C@H](C)[C@H](CN(C)C(=O)NC2CCCCC2)Oc2ccc(NC(=O)NC3CCCCC3)cc2C1=O	i
Cc1ccc(-c2nc3c(C)cc(Br)cn3c2Cc2ccccc2C(F)(F)F)cc1	i
C[C@H](CO)N1C[C@H](C)[C@H](CN(C)CC2CCCCC2)Oc2ccc(NC(=O)Cc3ccccc3)cc2CC1=O	i
Cc1noc(C)c1NC(=O)Nc1ccc2c(c1)CC(=O)N([C@@H](C)CO)C[C@@H](C)[C@H](CN(C)S(=O)(=O)c1ccc(F)cc1)O2	i
COc1ccc(NC(=O)N(C)C[C@H]2OCCCC[C@H](C)Oc3ccc(NS(=O)(=O)c4cccs4)cc3C(=O)N([C@@H](C)CO)C[C@@H]2C)cc1	i
C[C@@H]1CCCCO[C@@H](CN(C)C(=O)Nc2ccc3c(c2)OCO3)[C@@H](C)CN([C@H](C)CO)C(=O)c2cc(NS(=O)(=O)c3ccc(Cl)cc3)ccc2O1	i
Cc1noc(C)c1S(=O)(=O)Nc1ccc2c(c1)C(=O)N([C@@H](C)CO)C[C@@H](C)[C@H](CN(C)Cc1ccc(C(=O)Nc3ccccc3N)cc1)O2	i
C[C@H](CO)N1C[C@H](C)[C@@H](CN(C)Cc2ccncc2)OCCCC[C@H](C)Oc2ccc(NC(=O)Nc3ccc(C(F)(F)F)cc3)cc2C1=O	i
C[C@@H]1CN([C@@H](C)CO)C(=O)c2cccc(NC(=O)NC3CCCCC3)c2O[C@H]1CN(C)Cc1ccc2c(c1)OCO2	i
C[C@@H]1CN([C@H](C)CO)C(=O)c2cccc(NC(=O)C3CCOCC3)c2O[C@H]1CN(C)C(=O)NC1CCCCC1	i
CCN(C[C@H]1N[C@@H](CO)[C@H]1c1ccccc1)C(=O)c1ccccc1	i
C[C@@H]1CCCCO[C@H](CN(C)C(=O)Nc2cccc3ccccc23)[C@@H](C)CN([C@H](C)CO)C(=O)c2cc(NC(=O)Nc3ccccc3)ccc2O1	i
CCC(=O)N1C[C@H](C)[C@@H](OC)CN(C)C(=O)c2ccc(NC(=O)C3CCOCC3)cc2OC[C@@H]1C	i
COc1cccc(NC(=O)Nc2ccc3c(c2)C(=O)N(C)C[C@@H](OC)[C@@H](C)CN[C@@H](C)CO3)c1	i
Cc1ccc(S(=O)(=O)N(C)C[C@@H]2Oc3ccc(NC(=O)Nc4c(C)noc4C)cc3C(=O)N([C@H](C)CO)C[C@H]2C)cc1	i
COc1ccc(S(=O)(=O)Nc2ccc3c(c2)C(=O)N([C@@H](C)CO)C[C@@H](C)[C@H](CN(C)S(=O)(=O)c2ccc(Cl)cc2)OCCCC[C@H](C)O3)cc1	i
C[C@@H]1CN([C@@H](C)CO)C(=O)c2cc(NC(=O)Cc3cn(C)c4ccccc34)ccc2O[C@H]1CN(C)Cc1ccc(Oc2ccccc2)cc1	i
COc1ccc(S(=O)(=O)Nc2ccc3c(c2)CC(=O)N([C@@H](C)CO)C[C@@H](C)[C@@H](CN(C)C(=O)Nc2ccccc2)O3)cc1	i
O=C1CN(S(=O)(=O)c2cccc(F)c2)C[C@@H]2[C@H](c3ccc(C4=CCCC4)cc3)[C@H](CO)N12	i
C[C@H]1CN([C@@H](C)CO)C(=O)c2cccc(NS(=O)(=O)c3cccs3)c2O[C@@H]1CN(C)C(=O)Nc1ccc(F)cc1	i
CO[C@H]1CN(C)C(=O)c2ccc(NS(=O)(=O)c3ccccc3)cc2OC[C@H](C)N(Cc2ccccn2)C[C@@H]1C	i
O=C(C[C@H]1C[C@@H]2c3cc(NC(=O)CC4CC4)ccc3O[C@@H]2[C@H](CO)O1)NCc1cc(F)ccc1F	i
O=C(C[C@H]1C[C@@H]2c3cc(NC(=O)C4CCOCC4)ccc3O[C@@H]2[C@H](CO)O1)NCCc1ccccc1	i
C[C@@H]1CN([C@@H](C)CO)C(=O)Cc2cc(NC(=O)CCN3CCOCC3)ccc2O[C@H]1CN(C)Cc1ccc(C(=O)Nc2ccccc2N)cc1	i
O=C(C[C@@H]1CC[C@@H]2[C@H](COC[C@H](O)CN2C(=O)c2ccc3c(c2)OCO3)O1)NC1CCC1	i
C[C@H]1CN([C@@H](C)CO)C(=O)c2cc(NC(=O)Cn3cnnn3)ccc2O[C@@H]1CN(C)C(=O)Nc1ccccc1	i
CC(=O)NC[C@H]1[C@@H](c2ccc(-c3cccnc3)cc2)[C@H](CO)N1C(=O)C1CC1	i

An excerpt from the list above, as a working copy:
SMILES	FGF22 binding
C[C@@H]1CN([C@@H](C)CO)C(=O)c2cc(NC(=O)Cc3cn(C)c4ccccc34)ccc2O[C@H]1CN(C)Cc1ccc(Oc2ccccc2)cc1	i
COc1ccc(S(=O)(=O)Nc2ccc3c(c2)CC(=O)N([C@@H](C)CO)C[C@@H](C)[C@@H](CN(C)C(=O)Nc2ccccc2)O3)cc1	i
O=C1CN(S(=O)(=O)c2cccc(F)c2)C[C@@H]2[C@H](c3ccc(C4=CCCC4)cc3)[C@H](CO)N12	i
C[C@H]1CN([C@@H](C)CO)C(=O)c2cccc(NS(=O)(=O)c3cccs3)c2O[C@@H]1CN(C)C(=O)Nc1ccc(F)cc1	i
CO[C@H]1CN(C)C(=O)c2ccc(NS(=O)(=O)c3ccccc3)cc2OC[C@H](C)N(Cc2ccccn2)C[C@@H]1C	i
O=C(C[C@H]1C[C@@H]2c3cc(NC(=O)CC4CC4)ccc3O[C@@H]2[C@H](CO)O1)NCc1cc(F)ccc1F	i
O=C(C[C@H]1C[C@@H]2c3cc(NC(=O)C4CCOCC4)ccc3O[C@@H]2[C@H](CO)O1)NCCc1ccccc1	i
C[C@@H]1CN([C@@H](C)CO)C(=O)Cc2cc(NC(=O)CCN3CCOCC3)ccc2O[C@H]1CN(C)Cc1ccc(C(=O)Nc2ccccc2N)cc1	i
O=C(C[C@@H]1CC[C@@H]2[C@H](COC[C@H](O)CN2C(=O)c2ccc3c(c2)OCO3)O1)NC1CCC1	i

Following part
SMILES	FGF22 binding
COc1cccc(S(=O)(=O)N(C)C[C@H]2Oc3cc(C4=CCCC4)ccc3S(=O)(=O)N([C@@H](C)CO)C[C@H]2C)c1	i
COCC#Cc1cnc2c(c1)C(=O)N([C@@H](C)CO)C[C@@H](C)[C@@H](CN(C)C(=O)c1cccnc1)O2	i
O=C(C[C@@H]1CC[C@@H]2[C@H](COC[C@@H](O)CN2C(=O)Nc2ccc(F)cc2)O1)NC1CCC1	i
Cc1noc(C)c1NC(=O)N(C)C[C@@H]1OCCCC[C@@H](C)Oc2ccc(NC(=O)C3CCCCC3)cc2C(=O)N([C@H](C)CO)C[C@H]1C	i
Cc1ccc(S(=O)(=O)Nc2ccc3c(c2)CC(=O)N([C@H](C)CO)C[C@@H](C)[C@@H](CN(C)CC2CC2)O3)cc1	i
CC(=O)n1cc([C@@H]2C=C(C(=O)N3CCCCCCC3)O[C@H](OCCCCO)C2)c2ccccc21	i
C[C@@H]1CN([C@@H](C)CO)C(=O)c2cc(NC(=O)NC3CCCCC3)ccc2O[C@@H](C)CCCCO[C@H]1CN(C)Cc1ccc(C(=O)O)cc1	i
COc1ccccc1-c1ccc([C@@H]2[C@@H](CO)N3CCCCN(S(=O)(=O)c4cn(C)cn4)C[C@H]23)cc1	i
COc1ccc(S(=O)(=O)Nc2ccc3c(c2)CC(=O)N([C@@H](C)CO)C[C@H](C)[C@H](CN(C)S(=O)(=O)c2cccs2)O3)cc1	i
Cc1cccc(S(=O)(=O)N2C[C@H]3[C@@H](c4ccccc42)[C@@H](CO)N3CC2CCCC2)c1	i
C[C@@H]1CN([C@H](C)CO)C(=O)Cc2cc(NC(=O)CCC(F)(F)F)ccc2O[C@@H]1CN(C)Cc1ccncc1	i
CC(C)C#Cc1ccc([C@H]2[C@@H](C#N)N(C(=O)c3cccc(F)c3)[C@@H]2CO)cc1	i
CO[C@H]1CN(C)C(=O)c2cc(NC(=O)c3ccccc3)ccc2OC[C@H](C)N(C(C)=O)C[C@H]1C	i
CC(C)NC(=O)Nc1ccc2c(c1)CC(=O)N([C@@H](C)CO)C[C@@H](C)[C@H](CN(C)C(=O)Nc1ccc(C(F)(F)F)cc1)O2	i
C[C@H](CO)N1C[C@H](C)[C@H](CN(C)S(=O)(=O)c2ccc(Cl)cc2)Oc2ccc(NC(=O)Cc3cn(C)c4ccccc34)cc2C1=O	i
Cc1ccc(S(=O)(=O)N(C)C[C@H]2Oc3ccc(NC(=O)CCCN(C)C)cc3CC(=O)N([C@@H](C)CO)C[C@H]2C)cc1	i
C[C@@H]1CCCCO[C@H](CN(C)C)[C@H](C)CN([C@@H](C)CO)C(=O)c2cc(NC(=O)Nc3ccc(F)cc3)ccc2O1	i
C[C@H](CO)N1C[C@H](C)[C@H](CN(C)C(=O)Nc2cccc3ccccc23)OCCCC[C@H](C)Oc2ccc(NS(C)(=O)=O)cc2C1=O	i

Screening results (PubChem)
